LANA-nucl inh: inhibitors of KSHV LANA-nucleosome binding, primary screen, biochemical, fluorescence polarization, FITC-LANA1-23, chicken nucleosomes. hit rate 0.3% among 51,000. z-score (no concentration beside the values). FITC-LANA1-23 / chicken nucleosome fluorescence polarization; stronger effect = lower value;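 active = both repeat wells score below -2 in polarization z-score versus plate sample wells, excluding overly bright wells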;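 also: 100 nL library stock added to about 30 µL; numbers are from one replicate; some results filed as inactive read as strong as hits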
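Assay system: purified chicken nucleosomes with FITC-labelled LANA N-terminal peptide (1-23) / Probe or stimulus: 50 nM FITC-LANA1-23 probe / Compound dosing: pin-transferred compound, 100 nL / Times: compound with peptide–nucleosome mix 10–45 min at room temperature / Technique: fluorescence polarization, 480 nm excitation, 535 nm parallel and perpendicular emission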
BasE inh: BasE siderophore enzyme inhibitors, primary screen, biochemical, Acinetobacter baumannii ATCC 17978, fluorescence polarization | inhibition, % (no concentration beside the values) | purified BasE, fluorescence polarization binding displacement | AID 485350, 2010 | hit rate 0.1% among 84,000;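 active = both replicates above 25% with normal brightness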;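 also: 0% = negative plate control signal and 100% = positive plate control signal; stock transfer was 100 nL into about 30 µL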
An asterisk follows results filed as active; . = no result given; & = joins results of further samples. An excerpt. The share of hits here may be higher or lower than overall.

The line under a structure holds: BasE inh, LANA-nucl inh
Cn1nnc2c(N3CCC(C#N)(c4ccccc4)CC3)nc(Cc3ccc(Cl)cc3Cl)nc21
    -0.4, -0.33
COc1ccc(C(=O)N[C@H](C(=O)Nc2nc3ccccc3[nH]2)C(C)C)cc1
    2.0, .
O=C(Nc1nccs1)c1ccoc1COc1ccccc1
    ., -0.52
COCC(C)NC(=O)Nc1cn(C)c2ccccc12 (stereo not given)
    1.1, -0.78
COc1ccc(C)cc1NC(=O)c1c(C)cn(C)c1CC(=O)O
    -3.1, 2.6
Cc1c(C#N)c(NC(=O)CSc2nnnn2C2CCCC2)n(Cc2ccccc2)c1C
    -4.6, .
Cc1ccc(C(c2c(O)[nH]c(=S)[nH]c2=O)N2CC(C)CC(C)C2)cc1 (stereo not given)
    2.0, 0.35
COc1ccccc1CNC(=O)C1CCCN(C(=O)N2CCOc3ccccc32)C1 (stereo not given)
    0.8, -0.41
Cc1c(C(=O)O)cc(-c2ccccc2)n1CCSc1cc(C(F)(F)F)nc2ccccc12
    4.0, .
Cc1ccc2[nH]c(=O)c(CN(Cc3nnnn3CCc3ccccc3)C3CCCC3)cc2c1
    -2.6, -0.39
O=C(CN1C(=O)/C(=C\c2ccc(F)cc2)N=C1c1ccccc1)c1ccco1
    -0.6, .
Cc1ccc(N2C(=O)NC(c3ccccc3)(C(F)(F)F)C2=O)nc1 (stereo not given)
    1.7, -2.3*
c1ccc(-c2ncc3c(n2)-c2ccccc2CC3)cc1
    ., -0.51
COc1c(F)c(F)c(C(=O)O)c(Nc2cccc(C)c2)c1F
    9.4, 1.6
COc1ccccc1NCC(O)Cn1ccc2ccccc21 (stereo not given)
    -24, 0.38

Sorted by SMILES length (rising): part of the list above.
The line under a structure holds: BasE inh, LANA-nucl inh
COCC(C)NC(=O)Nc1cn(C)c2ccccc12 (stereo not given)
    1.1, -0.78
c1ccc(-c2ncc3c(n2)-c2ccccc2CC3)cc1
    ., -0.51
COc1ccc(C)cc1NC(=O)c1c(C)cn(C)c1CC(=O)O
    -3.1, 2.6
O=C(CN1C(=O)/C(=C\c2ccc(F)cc2)N=C1c1ccccc1)c1ccco1
    -0.6, .
Cc1ccc(C(c2c(O)[nH]c(=S)[nH]c2=O)N2CC(C)CC(C)C2)cc1 (stereo not given)
    2.0, 0.35
COc1ccc(C(=O)N[C@H](C(=O)Nc2nc3ccccc3[nH]2)C(C)C)cc1
    2.0, .
Cc1ccc2[nH]c(=O)c(CN(Cc3nnnn3CCc3ccccc3)C3CCCC3)cc2c1
    -2.6, -0.39

The results go on:
The line under a structure holds: BasE inh, LANA-nucl inh
N#Cc1nc2c(-c3nc4ccccc4s3)c(N)n(Cc3ccccc3)c2nc1C#N
    2.9, 0.77
O=C(CC1(O)C(=O)N(Cc2ccccc2)c2ccccc21)c1ccc(Br)cc1 (stereo not given)
    -1.0, .
Cc1csc(C/C(N)=N/O)n1
    1.0, .
S=C1Cc2ccccc2N1
    2.8, .
Nc1cccc(CCc2ccccn2)c1
    0.5, -0.35
CS(=O)(=O)N1Cc2ccccc2CC1C(=O)OCC(=O)c1ccccc1F (stereo not given)
    -1.5, .
COC(=O)CN1C(CN2CCOCC2)=Nc2ccc(Br)cc2C1c1ccccc1 (stereo not given)
    -2.0, 0.22
Cn1nccc1NC(=O)/C=C/C(=O)O
    0.4, .
Cc1cc2ncn(CCc3noc(-c4ccccc4)n3)c2cc1C
    -1.3, 0.78
CC1CC(C)(C)Nc2ccc(OC(=O)c3ccco3)cc21 (stereo not given)
    1.9, .
O=C(c1ccco1)N(Cc1ccccc1)Cc1cn(-c2ccccc2)nc1-c1ccc(F)cc1
    4.7, 0.8
c1ccc(COC(CNC2CCCCC2)CNC2CCCCC2)cc1
    -2.4, .
CN(C)S(=O)(=O)c1ccc2c3c(cccc13)C(=O)N2C(=O)c1cccs1
    -4.3, 1.1
CN(C)c1ccc2c3c(cccc13)C(=O)N(c1nc3ccccc3n1C)C2=O
    0.3, -0.97
O=C(Nc1nc2ccccc2s1)c1ccc(=O)[nH]c1
    0.9, .
Cc1ccccc1CC(=O)Nc1ccccc1
    -0.8, 1.6
CCOC(=O)N1CCC(NCc2ccc(Br)cc2)CC1
    -1.7, -0.21
O=C(Cc1cccs1)NC1CCN(Cc2ccccc2)CC1
    -0.4, -1.2
O=C(c1cc2sccc2n1Cc1ccc(F)cc1)N1CCc2ccccc2C1
    1.1, -0.43
C=CCNC(=O)Cc1coc2cc(C)ccc12
    0.6, -0.19
CC1=CC(=C2C(=O)N(c3ccccc3)N=C2C)C=C(C)N1Cc1ccco1
    -12, .
C=CCn1c(COc2ccccc2)nnc1SCC(N)=O
    2.7, -0.97
COc1ccc2c(c1)CCc1sc(/N=C/c3ccc(C)cc3)nc1-2
    1.8, .
Cc1c(Cl)cccc1NC1=NCC(=O)N1C1CCCC1
    2.6, 0.78
COc1ccc(Cl)cc1NC(=O)c1c(NCc2cccn2C)sc2c1CCCC2
    -1.0, 0.039
Cc1cc(-c2ccccc2)n2nc(N)nc2n1
    2.0, -0.59
Cc1cc(C(=O)COc2cccc3cccnc23)c(C)n1C
    4.5, .
O=C(O/N=C(\Cn1nnc(N2CCOCC2)n1)c1ccc(Cl)cc1)c1ccc(Cl)cc1Cl
    1.8, 0.056
CCn1c2ccccc2c2cc(NC(=O)c3cc(C)on3)ccc21
    -3.7, .
Cc1ccc(C(=O)Nc2ccc3c(c2)OCCO3)cc1
    2.2, .

Among those listed so far, two have a CF3 group:
The line under a structure holds: BasE inh, LANA-nucl inh
Cc1c(C(=O)O)cc(-c2ccccc2)n1CCSc1cc(C(F)(F)F)nc2ccccc12
    4.0, .
Cc1ccc(N2C(=O)NC(c3ccccc3)(C(F)(F)F)C2=O)nc1 (stereo not given)
    1.7, -2.3*

The list continues.
The line under a structure holds: BasE inh, LANA-nucl inh
CN1/C(=C\C(=O)C(F)F)C(C)(C)c2ccccc21
    -0.2, -0.66
CCOC(=O)/C=c1\s/c(=C\c2ccc(OC)cc2)c(=O)n1C
    -3.9, .
Cc1ccccc1N1CC(C(=O)N2CC(C)CC(C)C2)CC1=O (stereo not given)
    -1.5, 0.94
CCOC(=O)c1sc2nc3c(cc2c1N)COC(C)(C)C3
    -0.9, -0.0005
O=C(COC(=O)CC1CCCC1)Nc1cc(C(F)(F)F)ccc1N1CCOCC1
    -0.2, .
O=c1c(N2CCN(c3ccccc3)CC2)csc2ccccc12
    0.0, 0.01
Cn1nc(C(F)(F)F)c(CNC(=O)c2ccc(C(F)(F)F)cc2)c1N1CCOCC1
    ., -1.1
CCS(=O)(=O)N1CCN(Cc2noc(CCC(=O)N3CCCCC3)n2)CC1
    -0.1, .
O=C(Cn1cc(/C=N/NC(=S)Nc2ccccc2)c2ccccc21)NCc1ccco1
    0.2, -0.96
CN(CCOc1ccc(CC2SC(=O)NC2=O)cc1)c1ccccn1 (stereo not given)
    4.6, -0.19&0.38&0.1&-0.18
N#Cc1ccc(-c2c(NC(=O)NS(=O)(=O)c3ccccc3Cl)oc(-c3ccco3)c2C#N)cc1
    -2.3, 1.6
C/C(=N\OCC(=O)Nc1nc2ccccc2s1)c1cccs1
    0.6, 0.23
CCc1ccc(C(=O)N2CCN(c3ccc(N)cc3)CC2)cc1
    -0.9, -0.9
Nc1c2ccccc2nc2c(O)cccc12
    -0.3, -0.67
CC(C)c1ccc(NC(=O)COC(=O)c2ccc[nH]c2=O)cc1
    2.4, .
CC(=O)Nc1ccccc1OCc1cnc(Cl)s1
    ., 0.19
Cc1cccc(NC(=O)c2cc3c([nH]c2=O)CCCC3=O)n1
    -3.7, -0.017
O=C(NC12CCC(O)C(SC1)C2O)c1ccccc1 (stereo not given)
    -1.8, 2.5
C[C@]12CC[C@@H]3c4ccc(O)cc4C[C@@H](CCCCCCCCCS(=O)CCCC(F)(F)C(F)(F)F)[C@H]3[C@@H]1CC[C@@H]2O (stereo not given in full)
    ., -0.34
COc1ccc(Sc2nncc3nnn(-c4ccc(Cl)cc4)c23)cc1
    -0.5, 0.029
O=C(CCC(=O)n1ncc2ccc(Cl)cc21)NCc1cccnc1
    0.3, -0.16
COc1ccccc1OCC(=N)N
    -3.2, 2.7
Cc1oc(C(C)(C)C)cc1C(=O)NCCO
    -2.3, 0.21
COc1cc(OC)cc(-c2nc(=S)n3ccsc3n2)c1
    3.4, .
COC(=O)c1cc(C)sc1NC(=S)NC(C)c1cn(C)nc1C (stereo not given)
    0.6, -0.43
Cc1cc(C)c2sc(=NC(=O)CN3C(=O)CCC3=O)n(C)c2c1
    -2.3, -1.6
O=C1c2ccccc2C(=O)N1CCN1CCN(c2ncc(C(F)(F)F)cc2Cl)CC1
    3.5, .
O=C(COc1ncnc2sc3c(c12)CCCC3)NC1CCS(=O)(=O)C1 (stereo not given)
    3.0, .
N#Cc1ccc(COC(=O)CCc2nnc(-c3ccccc3)o2)cc1
    1.9, .
CCn1nnc2c(N(Cc3ccccc3)Cc3ccccc3)ncnc21
    2.0, -0.89
COC(=O)c1c(C)oc2ccc(OCc3ccccc3C)cc12
    -1.9, .
N#Cc1ccc(Oc2c(Cl)cncc2Cl)cc1
    0.0, -1.4
O=C1CCCN1C(=O)CSc1nc2ccccc2n1-c1ccccc1
    -1.0, .
Fc1ccc(CNc2ccc(N3CCCC3)cc2)cc1
    2.8, -0.03
COc1cccc(CO)c1OCc1ccccc1F
    1.1, -0.13
Cc1ccc(S(=O)(=O)N(C)CC(=O)Nc2cccnc2)cc1
    0.7, -0.35
CCCCNC(=O)CC1NCCNC1=O (stereo not given)
    -0.6, 0.3
COc1ccc(OC)c(S(=O)(=O)N2CCc3cc(OC)c(OC)cc3C2)c1
    2.9, -0.21
CCCNC(=O)c1ccc2c(c1)c(C)c(C)n2CC
    -4.2, 0.053
COc1ccc2c(C)nc(NC3=NC(C)(C)CC(C)=N3)nc2c1
    -4.5, 0.25
O=C1CSC(=S)N1CCCCCCN1C(=O)CSC1=S
    0.0, -0.28
CCN(CC)C(=O)c1cc(-c2cc(C(=O)N(CC)CC)c3ccccc3n2)nc2ccccc12
    2.4, .
CCOc1nc2ccccc2nc1NS(=O)(=O)c1ccccc1
    -1.6, .
CCN=C1NN=C(c2cc(C)n(Cc3ccco3)c2C)CS1
    -0.2, .
COc1ccc2oc(=O)c(-c3nc4ccccc4c(=O)[nH]3)cc2c1
    -1.7, 1.8
O=C(NCCN1CCN(Cc2ccccc2)CC1)Nc1ccc(F)cc1
    -0.3, 0.25
CN(C)c1ccc(N=Cc2nc(-c3ccccc3)oc2O)cc1
    5.8, .
CCOC(=O)CSCC1=C(C(=O)OCC)CNC(=O)N1
    0.5, .
Nn1c(SCC(=O)N2CCCC2)nnc1C1CCCCC1
    0.5, .
NNC(=O)CN1C(=O)Nc2ccc(Br)cc2C1c1ccccc1 (stereo not given)
    -3.1, 0.21
Cc1ccc(OCCN2CCN(C(=O)CSc3nc4ccccc4nc3N3CCCC3)CC2)cc1
    -1.0, -0.061
COc1ccc(CNC(=O)CSc2nc3cc4c(cc3cc2C#N)OCCO4)cc1
    0.2, -0.49
Cc1ccc2nc(N3CCN(Cc4nnnn4C4CCCC4)CC3)c(C#N)cc2c1
    2.8, 0.84
O=C(O)C1CC=CCC1C(=O)Nc1ccccc1F (stereo not given)
    ., -0.76
Nc1nc(/C(=C/CC(=O)O)C(=O)N[C@@H]2C(=O)N3C(C(=O)O)=CCS[C@H]23)cs1
    0.2, 0.15&0.89
CC(C)N(C(=O)NC(=O)Nc1cccc2ccccc12)S(C)(=O)=O
    -4.0, .
CCCc1cnc(N2CCN(S(=O)(=O)c3cccs3)CC2)nc1
    3.5, .
Cc1ccc(C)c(N2N=C(C(=O)OCC(=O)NC3CC3)CCC2=O)c1
    5.0, .
CCCn1c(C)cc(C(=O)CSc2nnc(-c3ccccc3)n2C)c1C
    -2.9, .
CCCc1cc(=O)n2[nH]c(C(F)(F)F)nc2n1
    0.2, -0.65

(listing goes on)
The line under a structure holds: BasE inh, LANA-nucl inh
CCOC(=O)c1c(C)n(OCc2ccccc2)c2ccc3nonc3c12
    2.1, .
COc1ccc(OC)c(NC(=S)NCCN2CCOCC2)c1
    0.5, .
CCS(=O)(=O)C(=C(Nc1ccccc1)Nc1ccccc1)S(=O)(=O)CC
    2.7, .
CSC(=NS(=O)(=O)c1ccccc1)SC
    2.0, .
CCOc1ccc(/C=C(\C(=O)N2CCCC2)n2ccccc2=O)cc1
    4.5, 0.48
CC1CCCCN1C(=O)CSCC(=O)Nc1nc(-c2ccc(Cl)s2)cs1 (stereo not given)
    -1.9, 0.28
N#C/C(=C\c1ccco1)C(=O)Nn1cnnc1
    -1.7, 0.059
CC(COc1ccc(C(C)C)cc1)NC(=O)c1ccco1 (stereo not given)
    1.6, .
Cc1cc(C(=O)n2ccc(-c3cccs3)n2)c(C)o1
    0.4, .
CCCNS(=O)(=O)c1ccc(OCC(=O)O)c(Cl)c1
    3.1, -1
CCc1cccc(OCC(=O)Nc2c[nH]c(=O)[nH]c2=O)c1
    -0.2, 0.73
